Assay outcomes from PubChem.
NPYLR7 ag: activates Aedes aegypti NPYLR7 receptor. HEK293T NPYLR7/Galpha15, GCaMP6s calcium fluorescence. activation, % at 10 µM. 270,000 tested, 0.15% active; in the data active = activation above about 40%;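 note: 0% = vehicle and 100% = reference agonist at the receptor; some compounds past the cut are filed as inactive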
NPYLR7 ag max-min: further read-out of NPYLR7 ag, marked with its call; activation, %; measured here: Max-Min RFU normalised activation; some inactives read as strong as hits;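 span of the calcium signal over five minutes; 0% = vehicle and 100% = native peptide agonist; compound fluorescence can raise it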
Active calls of the source: *; & = joins results of further samples. Only part of the results is shown; the hit share may differ from the screen's.

Screens in order: NPYLR7 ag | NPYLR7 ag max-min
[1] CC(C)COCC1CC2(CC(C)(c3csc(Nc4ccccc4Cl)n3)OC2=O)C(=O)O1 (configuration not stated)
  -3.4 | -7.9
[2] CC(C)Oc1ccc(C(O)=C2C(=O)C(=O)N(CCCN(C)C)C2c2ccc([N+](=O)[O-])cc2)cc1 (configuration not stated)
  7.8 | 3.4
[3] CCN(Cc1ccc(S(C)(=O)=O)cc1)Cc1cc(Cl)ccc1OC
  12.5 | -1.8
[4] O=C(NC1CCCCC1)C1CCN(S(=O)(=O)N2CCOCC2)CC1
  -0.1 | -0.6
[5] COc1ccc(S(=O)(=O)Oc2ccc(Cl)cc2CN(C(=O)CC(C)(C)C)C(C)C)cc1
  26.7 | 31.9
[6] Cc1ccnc(CC(C)N(C)C(=O)c2ccc(N(C)C)c3ccccc23)c1 (configuration not stated)
  -2.7 | 4.5
[7] CCn1cc(CN(Cc2ccsc2)C(C)C)cn1
  -3.8 | -6.7
[8] CCOC(=O)c1c(Cc2ccccc2)c[nH]c1C
  4.2 | 4.3
[9] CN1C(=O)NC(c2ccccc2C(F)(F)F)C2=C1CN(CC(=O)N1CCc3ccccc3C1)C2=O (configuration not stated)
  -1.8 | 4.2
[10] CN(C)c1ccc(Nc2cccc3nonc23)cc1
  1.2 | -3.7
[11] Cc1nn(-c2ccccc2)c2nc(C3CCOCC3)nc(N3CCN(C(=O)c4cccs4)CC3)c12
  8.0 | 9.7
[12] COc1ccc(-c2cc3c(=O)n(CC(=O)Nc4c(C)cc(C)cc4C)ccn3n2)cc1
  4.4 | 3.8
[13] COc1ccc(-n2ccnc2-c2ccc(Sc3nncn3C)o2)cn1
  14.2 | 10.8
[14] Cc1nn(CC(N)=O)c(=O)c2c1cnn2-c1ccccc1
  -7.9 | -6.5
[15] COCCCN(CC(=O)N(Cc1cccn1Cc1ccccc1Cl)CC(C)C)C(=O)c1cccc(OC)c1
  -8.4 | -7.8
[16] COc1ccc(OC)c(NC(=O)NCC2COC(C)(C)O2)c1 (configuration not stated)
  -3.6 | -11.3
[17] COCCCN(CC(=O)N(CCc1c[nH]c2ccccc12)Cc1ccc(OC)c(OC)c1)C(=O)c1cc(Cl)cc(Cl)c1
  2.3 | 6.2
[18] COc1ccc2[nH]c3nc4cc5ccccc5cc4nc3c2c1
  -3.5 | -2.9
[19] CC(=O)c1ccc(NC(=O)CSc2nc(N)c(NC(=O)c3ccc(F)c(F)c3)c(=O)[nH]2)cc1
  -2.4 | -2.4
[20] O=C(O)c1c[nH]c(=S)n1-c1ccc(F)cc1
  1.8 | 2.2
[21] COc1cccc2c1OCC(C1CC(=O)Nc3cc4[nH]ncc4cc31)=C2 (configuration not stated)
  19.1 | 7.0
[22] COc1ccc2c(c1)OC1(CCN(C(=O)/C=C/c3ccc(C)cc3)CC1)CC2=O
  -8.5 | 5.4
[23] CCc1ccc(C(=O)Nc2cccc(NC(C)=O)c2C)cc1
  -14.1 | -14.9
[24] COCCn1cc(NS(=O)(=O)/C=C/c2ccccc2Cl)cn1
  22.9 | 23.0
[25] c1ccc2c(c1)OCC(c1nnc3c4c5c(sc4ncn13)CCCC5)O2 (configuration not stated)
  -1.9 | -5.1
[26] COCc1cc(CNC2CSCCSC2)n[nH]1
  6.8 | 4.2
[27] CCOc1ccc(-c2nc(N3CCc4ccccc4C3)c3ccccc3n2)cc1
  3.4 | 5.8
[28] C=C(C)c1cccc(C(C)(C)NC(=O)NCCc2ccccc2)c1
  -4.6 | -8.0
[29] CN(C)CCNC(=O)[C@@]1(OCc2cccc(F)c2)CC(OCc2ccc(C(F)(F)F)cc2)[C@@H]2OC(C)(C)O[C@@H]2C1 (some centres not stated)
  5.5 | 12.1
[30] CC(c1ccccc1)N(Cc1cc(NC(=O)C2CCC2)ccc1N(C)C)C(=O)c1cccc(F)c1 (configuration not stated)
  16.8 | 11.1

Screens in order: NPYLR7 ag | NPYLR7 ag max-min
[31] O=C(Nc1cccc2c1C(=O)c1ccccc1C2=O)c1ccc(-c2ccccc2)cc1
  -2.5 | -10.1
[32] Cc1ccc(C(=O)N2CCC(n3cnc4cc(C(F)(F)F)ccc43)CC2)s1
  19.0 | 13.4
[33] CC(NC(=O)c1cccc(S(=O)(=O)N2CCCCC2)c1)c1ccncc1 (configuration not stated)
  10.1 | 5.6
[34] CC1C(=O)N(c2ccc(Cl)cc2)CCN1C(=O)c1ccc([N+](=O)[O-])cc1 (configuration not stated)
  -3.0 | 2.1
[35] Fc1ccc(C2Oc3ccccc3C3CC(c4ccc5c(c4)OCCO5)=NN32)cc1 (configuration not stated)
  2.1 | 2.1
[36] COC(=O)c1sc(NC(C)c2ccc(S(C)(=O)=O)cc2)nc1Cl (configuration not stated)
  -1.0 | 18.1
[37] O=c1[nH]nc(SCc2cc(-c3cccs3)on2)n1C1CC1
  12.6 | 7.5
[38] Cc1cc(=O)[nH]c(-n2nc(C)cc2NC(=O)C2CC2)n1
  4.4 | -0.2
[39] O=C(CCn1cccn1)N1CCCC(CNS(=O)(=O)c2cccs2)C1 (configuration not stated)
  23.8 | 15.2
[40] Cc1ccn(-c2ccccc2CC(=O)O)n1
  -4.3 | -6.1
[41] COc1ccc(N=C(N2CCCCC2)P(=O)(N2CCCCC2)N(C(C)C)C(C)C)cc1 (configuration not stated)
  -7.2 | -6.8
[42] O=C(Nc1cccc(Cl)c1)N1CCCC(OCc2cccc(F)c2F)C1 (configuration not stated)
  -4.7 | 1.6
[43] Cc1csc(C(C#N)C(=O)CSc2nnc(Cc3csc(C)n3)o2)n1 (configuration not stated)
  2.1 | 10.1
[44] COC(=O)c1sccc1NS(=O)(=O)c1cc(F)cc(F)c1
  2.1 | 1.6
[45] O=C(CSc1nnnn1C1CCCC1)N(Cc1cccs1)C1CCS(=O)(=O)C1 (configuration not stated)
  1.4 | 2.2
[46] CCC(Sc1nc(C)cc(C)n1)C(=O)NC1=NN=C(c2ccc(C)cc2)CS1 (configuration not stated)
  1.4 | -0.7
[47] CCN(C(=O)c1cccn(Cc2ccccc2)c1=O)c1cccc(C)c1
  9.9 | 2.6
[48] COc1cc(COC2CCCN(C(=O)C3CC3)C2)cc(OC)c1 (configuration not stated)
  -1.1 | 5.3
[49] COc1ccc(-n2cnn(CN3CCN(c4cccc(Cl)c4)CC3)c2=S)cc1
  1.6 | 4.8
[50] CCOCCOc1nc(-c2cccc(F)c2)n(-c2ccc(NC(=O)/C=C/c3ccccc3)cc2)n1
  25.9 | 30.1
[51] Cc1nnc(NC(=O)c2cn(Cc3ccccc3)nc2OCc2ccccc2)s1
  17.2 | 8.3
[52] COC(=O)c1ccc2c(=O)[nH]c3c(C(=O)OC(C)C)c4nc5ccccc5nc4n3c2c1
  -3.8 | 1.1
[53] COc1ccc(C[C@H](NC(=O)C2=C[C@@H](NC(=O)COCC(=O)O)[C@@H](O)[C@H](O)C2)C(N)=O)cc1
  -5.8 | -13.2
[54] CN1OC(C)(CC(=O)NCc2cccc(O)c2)N=C1c1ccccc1 (configuration not stated)
  10.0 | 5.7
[55] CCCCC1(O)CC(C)N(C)CC1C (configuration not stated)
  0.8 | -1.6
[56] Cc1cc(C)c(NC(=O)CN(C)C(=O)C2CC(=O)N(C(C)c3ccccc3)C2)c(C)c1 (configuration not stated)
  8.1 | 9.1
[57] O=C1Nc2ccccc2C12OCC1(CO2)COC2(OC1)C(=O)Nc1ccccc12 (configuration not stated)
  -0.3 | -2.6
[58] O=C(c1cc[n+]([O-])cc1)N1CCC2(CCCN(Cc3cccc(F)c3F)C2)C1 (configuration not stated)
  5.0 | 1.1
[59] C=CCNC(=O)C(NC(=O)c1cccc(OC)c1)C1CCN(C(=O)C2CCCC2)CC1 (configuration not stated)
  7.2 | 5.1
[60] Cc1nnc(SC(C)C(=O)Nc2ccc(Cl)cc2Cl)[nH]c1=O (configuration not stated)
  -0.1 | -0.1

Screens in order: NPYLR7 ag | NPYLR7 ag max-min
[61] Cn1c(C2CCS(=O)(=O)C2)n[nH]c1=S (configuration not stated)
  0.1 | 1.1
[62] O=C(/C=C/c1csc(-c2ncccn2)n1)C1CCCCC1
  5.1 | 3.5
[63] CC(C)N1CCC(NC(=O)COC(=O)c2cccc(O)c2)CC1
  9.4 | 7.4
[64] CN(Cc1ccccc1)c1ccc2c(-c3cccnc3)noc2n1
  2.3 | 1.2
[65] O=C(Nc1nc(-c2ccc(I)cc2)cs1)c1cc([N+](=O)[O-])ccc1Cl
  -1.8 | -7.7
[66] CCCSc1ncccc1C(=O)NCc1ccc2c(c1)OCO2
  8.5 | 8.4
[67] O=C(c1cc(COc2cccc(F)c2)[nH]n1)N1CCC(N2CCSCC2)CC1
  23.2 | 14.5
[68] COc1ccc(C2CCCCCN2C(=O)c2ccc(C(N)=O)cc2)cc1 (configuration not stated)
  0.5 | -0.8
[69] O=C(C1=Cc2ccccc2OC1)N1CCN(S(=O)(=O)c2cc(C(F)(F)F)ccc2Cl)CC1
  -4.0 | -8.1
[70] NC(=O)c1nc(-c2cc(Br)ccc2O)nc2c1[nH]c(=O)n2-c1cccc(Cl)c1
  -0.2 | 8.4
[71] CC(C)C(=O)Nc1cc(C2CC2)nn1C1CCS(=O)(=O)C1 (configuration not stated)
  -3.9 | -5.9
[72] O=C(Nc1cccc2ccccc12)c1cc2ccc(O)cc2oc1=O
  -4.3 | -8.2
[73] COc1cn(CC(=O)Nc2ccc(C(C)=O)cc2)c(CSc2nccc(C)n2)cc1=O
  -2.6 | -11.6
[74] O=C1C(C(c2ccco2)N2CCN(Cc3ccccc3)CC2)Sc2nc(-c3ccco3)nn21 (configuration not stated)
  -1.5 | -1.3
[75] COC(=O)C1=C(O)/C(=C\c2ccc(OC)cc2OC)SC1=Nc1cccc([N+](=O)[O-])c1
  -3.8 | 3.6
[76] Cc1ccc(C=C(C#N)C(=O)NC2CC2)s1
  3.8 | 1.8
[77] Cc1cc(N)c(-n2c(C)c3c(C)nnc(C)c3c2C)cc1C
  -7.5 | -16.3
[78] COc1ccccc1NC(=O)c1ccc(NC(C)C)nc1
  1.8 | 3.1
[79] CCCCN(C)c1nc(SC)ncc1CNC(C)CCc1ccccc1 (configuration not stated)
  26.1 | 21.4
[80] Cn1cnnc1CC1CCN(C(=O)Nc2cccc3ccccc23)CC1
  -13.2 | -13.6
[81] Cc1ccc(-n2ncc3c(C)nnc(SCc4ccccn4)c32)cc1C
  -6.8 | -14.6
[82] COc1ccccc1NC(=O)c1ccc(-n2nc(-c3ccc(Cl)c(Cl)c3)cc2N)cc1
  2.1 | -0.8
[83] Cc1ccc(N2C(=O)/C(=C/c3ccc(Br)cc3)C=C2c2ccccc2)c(Br)c1
  -3.5 | -1.3
[84] Cc1nc2ccc(Cl)cn2c(=O)c1NC(=O)CC1CCCCC1
  5.5 | 3.3
[85] N#Cc1c(-c2ccc(Cl)cc2)cc(C2CC2)nc1N
  9.6 | 6.0
[86] Cc1cc(=O)[nH]c(SCc2cn3ccsc3n2)n1
  1.7&14.2 | -0.5&5.4
[87] CNC(=S)N1CCn2cccc2C1c1ccncc1 (configuration not stated)
  -0.3 | -3.1
[88] O=C1CC(c2ccccc2)CC(O)=C1C=NCCO (configuration not stated)
  -2.4 | -6.3
[89] O=C(CSCc1coc(-c2ccccc2)n1)Nc1ccc(Cl)cn1
  6.9 | 4.2
[90] Cc1ccc(Nc2nc(NCCCO)nc3c2cnn3-c2ccccc2)cc1
  4.3 | 3.6
[91] CC1CCc2c(sc(NC(=O)C3CCCO3)c2C#N)C1 (configuration not stated)
  3.2 | 3.4
[92] Cc1ccc2c(c1)c(N=Nc1cccc3cccnc13)c(O)n2C
  -2.2 | 7.3

Of the compounds above, 15 contain an NH in an aromatic ring.
Screens in order: NPYLR7 ag | NPYLR7 ag max-min
[8] CCOC(=O)c1c(Cc2ccccc2)c[nH]c1C
  4.2 | 4.3
[17] COCCCN(CC(=O)N(CCc1c[nH]c2ccccc12)Cc1ccc(OC)c(OC)c1)C(=O)c1cc(Cl)cc(Cl)c1
  2.3 | 6.2
[18] COc1ccc2[nH]c3nc4cc5ccccc5cc4nc3c2c1
  -3.5 | -2.9
[19] CC(=O)c1ccc(NC(=O)CSc2nc(N)c(NC(=O)c3ccc(F)c(F)c3)c(=O)[nH]2)cc1
  -2.4 | -2.4
[20] O=C(O)c1c[nH]c(=S)n1-c1ccc(F)cc1
  1.8 | 2.2
[21] COc1cccc2c1OCC(C1CC(=O)Nc3cc4[nH]ncc4cc31)=C2 (configuration not stated)
  19.1 | 7.0
[26] COCc1cc(CNC2CSCCSC2)n[nH]1
  6.8 | 4.2
[37] O=c1[nH]nc(SCc2cc(-c3cccs3)on2)n1C1CC1
  12.6 | 7.5
[38] Cc1cc(=O)[nH]c(-n2nc(C)cc2NC(=O)C2CC2)n1
  4.4 | -0.2
[52] COC(=O)c1ccc2c(=O)[nH]c3c(C(=O)OC(C)C)c4nc5ccccc5nc4n3c2c1
  -3.8 | 1.1
[60] Cc1nnc(SC(C)C(=O)Nc2ccc(Cl)cc2Cl)[nH]c1=O (configuration not stated)
  -0.1 | -0.1
[61] Cn1c(C2CCS(=O)(=O)C2)n[nH]c1=S (configuration not stated)
  0.1 | 1.1
[67] O=C(c1cc(COc2cccc(F)c2)[nH]n1)N1CCC(N2CCSCC2)CC1
  23.2 | 14.5
[70] NC(=O)c1nc(-c2cc(Br)ccc2O)nc2c1[nH]c(=O)n2-c1cccc(Cl)c1
  -0.2 | 8.4
[86] Cc1cc(=O)[nH]c(SCc2cn3ccsc3n2)n1
  1.7&14.2 | -0.5&5.4

In a second layout: entries from further up
3. CCN(Cc1ccc(S(C)(=O)=O)cc1)Cc1cc(Cl)ccc1OC
4. O=C(NC1CCCCC1)C1CCN(S(=O)(=O)N2CCOCC2)CC1
screen / no.,3,4
NPYLR7 ag,12.5,-0.1
NPYLR7 ag max-min,-1.8,-0.6
